# ugtP null kill – growth inhibition of ugtP-null S. aureus, primary screen, RN4220 ugtP deletion, OD600. 16 h; some inactives read as strong as hits. AID 1259309, 2017. 330,000 tested, 0.54% active. growth inhibition, % (concentration not given with the values);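 active = z-score under -3 and OD600 up to 0.15 on both plates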;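 also: plate controls were untreated wells for no effect and antibiotic for full effect; wells of about 80 µL received 100 nL stock; the first replicate is given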
# PrP 5UTR inh – inhibition of PrP 5' UTR reporter expression. 340,000 tested, 0.35% active. cell-based PrP 5' UTR mRNA reporter, plate reader. AID 488862, 2010. inhibition, % (concentration not given with the values);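 active = every replicate at 50% or more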;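 also: 0 = median of the neutral control wells; tested in H4 reporter cells; numbers are from one replicate; inactives centre near -14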
# Sa RN4220 lethal – growth inhibition of S. aureus RN4220, primary screen, OD600 | 16 h | inhibition, % (concentration not given with the values) | 330,000 tested, 0.33% active | AID 1259311, 2017;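 active = z-score of -3 or lower and OD600 up to 0.18 on both plates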;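 also: plate controls were untreated cells for no effect and reference antibiotic for full effect; stock transfer was 100 nL into about 80 µL; one replicate is shown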
# BJeLR lethal – MLPCN primary cell-based screen for lethality selective to Ras in HRASV12 cells | BJeLR (HRASV12) viability, CellTiter-Glo ATP luminescence, 48 h; reference of the scale not given here | inhibition, % (concentration not given with the values) | 300,000 tested, 0.17% active;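 active = replicate mean above 50%; inconclusive = above 50% but judged a plate artefact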;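 also: 50 nL library stock added to about 25 µL; numbers are from one replicate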
# Autofluor counter – counter-screen for toxin protease inhibitors: compound fluorescence; compound autofluorescence counterscreen, microsphere flow cytometry; hits give high values; fluorescence intensity (no concentration beside the values); 360,000 tested, 3.1% active; AID 624483;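 active = at least 3 SD above the mean of all compounds, about 16000 in these data; inconclusive = too few beads counted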;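 also: 100 nL of 1 mM stock went into each well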
# Mtb hypoxia inh – PubChem AID 1159583. 300,000 tested, 0.1% active. M. tuberculosis hypoxia-regulated fluorescent reporter, fluorescence. fluorescence inhibition, % (concentration not given with the values);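 active = 35 to 45% if threefold the growth effect, above 45% if 1.5-fold the growth effect; inactive = the rest, general growth blockers included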;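 also: wells of about 50 µL received 100 nL stock; 0% = vehicle wells and 100% = reference inhibitor wells; whole bacteria with a GFP reporter of the hypoxia response; strong numbers were not always called active; many hits fall short of the cut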
# Mtb hypoxia inh growth – further read-out of Mtb hypoxia inh, marked with its call; growth inhibition, %; measured here: M. tuberculosis growth (absorbance);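 0% = vehicle and 100% = reference antibiotic; read after six days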
# Starred values were filed as active, the others as inactive; ? = inconclusive; . = no result given.
SMILES,ugtP null kill,PrP 5UTR inh,Sa RN4220 lethal,BJeLR lethal,Autofluor counter,Mtb hypoxia inh,Mtb hypoxia inh growth
CS/C(N)=N/N=Cc1ccc([N+](=O)[O-])cc1,3,.,3.7,.,.,7,-4
Cc1ccc(C)c(N2CCN(C(=O)c3cc4ccccn4n3)CC2)c1,-9,-5,-0.9,-1,5909,-1,12
CC(=O)OC1=CC[C@H]2[C@@H]3CC[C@H]4C[C@H](OC(C)=O)[C@@H](OC(C)=O)C[C@]4(C)[C@H]3CC[C@]12C,-7,-13,1.9,.,5421,.,.
O=C(Cc1ccccc1)NC(=S)Nc1ccc2oc(-c3ccccc3)nc2c1,30,.,-2.8,-6,.,6,0
COc1ccc(O)c(C(=O)c2cnc3nc4ccccc4n3c2)c1,-24,-13,-4.8,10,7380,-1,2
CN(C)c1nc2ccc(OCCN3CCCCC3)cc2s1,-1,-38,3.3,2,23663*,2,8
CC(=O)Nc1cccc(/C(C)=N/NC(=O)c2ccc(Cl)cc2Cl)c1,.,-32,.,-4,4793,.,.
CC(C)(C)c1ccc(COC(=O)Nc2ccc(F)cc2)cc1,2,-27,3.4,-3,2118,18,1
CCOC(=O)CNC(=O)N1CCCC(C(=O)c2ccccc2SC)C1 (configuration not stated),7,-11,2.6,-5,2446,4,-6
CCC(CC)c1nnc(NC(=O)C2CC(=O)N(c3ccc4c(c3)OCCO4)C2)s1 (configuration not stated),1,-16,2.6,-11,10680,-3,-4
CCn1c(C(O)c2cc(OC)c(OC)c(OC)c2)nc2ccccc21 (configuration not stated),14,-12,7.4,-8,3170,16,5
Cc1cc(C)n2ncc(C(=O)Nc3cccc(O)c3)c2n1,5,-40,4.1,9,4960,-5,-4
COC(=O)c1cccc(C(=O)Nc2ccc(C)cc2Br)n1,0,-26,4.6,1,15954,4,4
O=C(CNC(=O)c1ccccc1Br)NN=Cc1cc([N+](=O)[O-])cc(Br)c1O,7,.,26,.,.,-1,-5
Clc1ccc(-c2cnnc(-c3ccccn3)n2)cc1,-14,-27,7.1,.,4175,-4,12

# One compound at a time (already shown). Values in the order: ugtP null kill | PrP 5UTR inh | Sa RN4220 lethal | BJeLR lethal | Autofluor counter | Mtb hypoxia inh | Mtb hypoxia inh growth
# O=C(CNC(=O)c1ccccc1Br)NN=Cc1cc([N+](=O)[O-])cc(Br)c1O in the list: 7 | . | 26 | . | . | -1 | -5
# CC(C)(C)c1ccc(COC(=O)Nc2ccc(F)cc2)cc1 in the list: 2 | -27 | 3.4 | -3 | 2118 | 18 | 1

# Continuation.
SMILES,ugtP null kill,PrP 5UTR inh,Sa RN4220 lethal,BJeLR lethal,Autofluor counter,Mtb hypoxia inh,Mtb hypoxia inh growth
CCOC(=O)C1CCCN(C(=O)COC(=O)c2ccc(C#N)cc2)C1 (configuration not stated),-3,-17,4.0,5,2558,4,7
Cc1ccc2c([N+](=O)[O-])c(C)ccc2n1,3,-18,6.9,11,8898,4,6
CCOC(=O)C(C)Oc1ccc(OCc2ccccc2)cc1 (configuration not stated),22,-12,8.7,5,3168,-6,-5
COc1ccc(NC(=O)c2oc3ccccc3c2NC(=O)C2CCCO2)cc1OC (configuration not stated),0,-58,-2.4,5,3365,-23,2
CC(=O)Nc1ccc(Oc2ccc(NC(C)=O)c(NC(C)=O)c2)cc1,-2,-30,-0.9,5,4110,-7,7
C/C(=N\N=C(N)N)c1ccc(C)c(C)c1,.,5,.,1,5475,.,.
COC(=O)c1ccccc1-n1cccc1C(=O)NP(=O)(N1CCOCC1)N1CCOCC1,7,-10,6.7,-2,2103,5,6
Cc1c(NC(=O)CN2CCN(c3ccc([N+](=O)[O-])cc3)CC2)c(=O)n(-c2ccccc2)n1C,0,-29,1.0,-2,4291,8,0
COc1ccccc1CNC(=O)CC(C)=NNC(=O)Cc1ccccc1,3,.,3.5,.,.,4,10
CCN(CC)c1ccc(C=NN2CCN(c3ccccn3)CC2)cc1,-2,.,7.5,.,.,16,2
CN1C(=O)C(/C(N)=N/NC(=O)c2ccccc2)C2CC1(C)Oc1ccccc12 (configuration not stated),14,-18,2.1,-2,2051,6,3
CN1CCN(CCCNC(=O)Nc2cccc3ccccc23)CC1,0,-21,2.6,5,2596,.,.
CCOC(=O)C1C(=O)NC(c2ccccc2)=NC1c1ccccc1 (configuration not stated),0,-5,10,14,2138,.,.
O=C(NCC1(c2ccccc2)CCCC1)c1ccco1,7,-33,6.4,3,3222,4,0
Cc1ccc(S(=O)(=O)N2CCCCC2)cc1C(=O)OC1CCCCC1=O (configuration not stated),5,-7,-2.1,-8,6824,-3,8

# An excerpt of these results, as tab-separated lines.
canonical_smiles	ugtP null kill	PrP 5UTR inh	Sa RN4220 lethal	BJeLR lethal	Autofluor counter	Mtb hypoxia inh	Mtb hypoxia inh growth
Clc1ccc(-c2cnnc(-c3ccccn3)n2)cc1	-14	-27	7.1	.	4175	-4	12
CCOC(=O)C1CCCN(C(=O)COC(=O)c2ccc(C#N)cc2)C1 (configuration not stated)	-3	-17	4.0	5	2558	4	7
Cc1ccc2c([N+](=O)[O-])c(C)ccc2n1	3	-18	6.9	11	8898	4	6
CCOC(=O)C(C)Oc1ccc(OCc2ccccc2)cc1 (configuration not stated)	22	-12	8.7	5	3168	-6	-5
COc1ccc(NC(=O)c2oc3ccccc3c2NC(=O)C2CCCO2)cc1OC (configuration not stated)	0	-58	-2.4	5	3365	-23	2
CC(=O)Nc1ccc(Oc2ccc(NC(C)=O)c(NC(C)=O)c2)cc1	-2	-30	-0.9	5	4110	-7	7
C/C(=N\N=C(N)N)c1ccc(C)c(C)c1	.	5	.	1	5475	.	.
COC(=O)c1ccccc1-n1cccc1C(=O)NP(=O)(N1CCOCC1)N1CCOCC1	7	-10	6.7	-2	2103	5	6
Cc1c(NC(=O)CN2CCN(c3ccc([N+](=O)[O-])cc3)CC2)c(=O)n(-c2ccccc2)n1C	0	-29	1.0	-2	4291	8	0
COc1ccccc1CNC(=O)CC(C)=NNC(=O)Cc1ccccc1	3	.	3.5	.	.	4	10
CCN(CC)c1ccc(C=NN2CCN(c3ccccn3)CC2)cc1	-2	.	7.5	.	.	16	2
CN1C(=O)C(/C(N)=N/NC(=O)c2ccccc2)C2CC1(C)Oc1ccccc12 (configuration not stated)	14	-18	2.1	-2	2051	6	3
CN1CCN(CCCNC(=O)Nc2cccc3ccccc23)CC1	0	-21	2.6	5	2596	.	.

# Further records.
SMILES,ugtP null kill,PrP 5UTR inh,Sa RN4220 lethal,BJeLR lethal,Autofluor counter,Mtb hypoxia inh,Mtb hypoxia inh growth
CCO[C@H]1OC(C(=O)NCc2ccccc2)=C[C@@H](c2coc3ccccc3c2=O)[C@@H]1CCCO,.,-13,.,-12,3628,.,.
Cc1ccccc1NC(=O)CC1C(=O)Nc2ccccc2N1CC(=O)N(C)C1CCS(=O)(=O)C1 (configuration not stated),1,-15,2.0,.,8494,3,0
O=S(=O)(NN=Cc1ccccc1OCc1ccc(Cl)cc1)c1ccccc1,8,.,10,.,.,12,9
CC1CN(c2ccc([N+](=O)[O-])c(NCCOc3ccccc3)c2)CCN1 (configuration not stated),-1,-17,-7.1,5,2204,17,9
Cc1nc2sccc2c(=O)n1-c1ccccc1Cl,0,-9,0.8,-2,9268,-4,11
COc1ccc(NC(=O)c2ccc[n+]([O-])c2)cc1,8,-26,2.4,5,3749,-1,-1
Cc1ccc(OCC(=O)Nc2ccccc2-c2ccccc2NC(=O)COc2ccc(C)cc2)cc1,24,-15,-1.8,9,2166,-1,0
CCn1c(SCC(=O)Nc2ccc(N3CCOCC3)cc2)nnc1-c1ccncc1,2,-38,10,-1,5509,-4,-2
O=C1NC(=S)N(C(=O)c2ccc(F)cc2)/C1=C/c1cccnc1,15,.,7.4,0,.,16,0
Cn1c(N)c(C(=O)COC(=O)C(Cc2ccccc2)NC(=O)c2ccccc2)c(=O)n(C)c1=O (configuration not stated),-4,-27,2.6,5,4298,15,3
C=CCc1cc(C=Nn2cnnc2)cc(OCC)c1O,10,.,5.3,.,.,-81,-16
Cc1cc(N2CCOCC2)n2cc(-c3ccc(F)cc3)nc2n1,4,-26,8.3,-2,4210,14,5
O=C(c1cc2c(=O)n3ccccc3nc2s1)N1CCN(Cc2ccccc2)CC1,2,-22,3.3,-11,3775,0,-2
CCOc1cc(C(C(=O)NCC2CCCO2)N(C(=O)Cn2nnc3ccccc32)c2ccccc2C(C)=O)ccc1O (configuration not stated),2,0,-0.4,-3,4014,-6,5
CCCC(=O)Nc1c(-c2ccccc2Cl)c(=O)c2ccccc2n1C,4,-8,2.7,3,3584,6,-4
Cc1ccc(OC(=O)CCC(=O)Nc2ccc(C)c(C)c2)cc1,6,-18,0.3,2,?,3,4
C/C(=N\NC(=O)c1c(-c2ccccc2Cl)noc1C)c1cccc(NC(=O)C(C)C)c1,.,-15,.,7,10406,.,.
C=CCNC(=O)/C(C#N)=C\c1cc(Cl)c(OCC)c(OC)c1,-3,-21,-0.2,14,2511,8,7
COc1ccc(/C=N/Nc2nc3ccccc3[nH]2)cc1OC,.,-25,.,-10,2407,.,.
COC(=O)c1ccc(OCC(O)CN2CCN(C(=O)c3ccco3)CC2)c(OC)c1 (configuration not stated),6,-15,1.4,-2,6284,8,3
O=C(COc1ccccc1Cl)NCCNC(=O)c1ccco1,0,-16,1.3,5,5343,3,6
CCOC(=O)c1cc(CC)sc1NC(=O)COC,11,-16,1.0,-12,18881*,8,11
COC(=O)NNC(=O)/C=C/c1ccccc1,-2,-10,3.5,-20,2368,-2,3
CN(C)S(=O)(=O)c1ccc(C(=O)NCCc2ccco2)cc1,-6,-15,-4.6,-4,3085,1,-4
COc1ccc(-c2cc(C(=O)O)c3sc(N4CCCCC4)nc3n2)cc1OC,2,-5,3.4,-8,10293,9,3
Cc1ccccc1OCC(=O)ON=C(N)Cc1ccc(Cl)cc1,2,.,4.3,.,.,5,6
O=C(NCCCc1ccccc1)c1cc([N+](=O)[O-])ccc1Cl,9,-10,0.3,-5,2429,-7,-7
N#CC1=C(N)N2C(=C(C#N)C1c1cccc(Br)c1)Nc1ccccc12 (configuration not stated),-2,-9,1.3,31,2418,-12,-16
COc1cc(C(=O)Nc2ccccc2-c2nnn(CC(N)=O)n2)cc(OC)c1OC,5,-6,4.7,5,4070,.,.
COc1ccc2oc(C(=O)OC(C)C(=O)Nc3ccc(N4CCOCC4)cc3)c(C)c2c1 (configuration not stated),0,-13,4.8,.,3695,18,8
CCc1[nH]nc2c1C(c1cccnc1)C(C#N)=C(N)O2 (configuration not stated),9,-26,4.4,0,3117,11,4
CC1CCCCC1=NNC(=S)NCCc1ccccc1 (configuration not stated),2,.,2.2,.,.,16,2
NC(=O)/C=C/C(=O)Nc1ccc(Cl)cc1,11,-14,12,-3,4308,3,12
CC(=O)c1c(N)n(C)c(=O)n(C)c1=O,3,-8,2.0,3,10107,11,6
COc1cccc(NC(=O)c2ccc(NCCCN3CCC(C)CC3)c([N+](=O)[O-])c2)c1,-75,-25,4.9,3,4198,20,12
Cc1occc1-c1nnc(SCC(=O)N2CCOCC2)n1Cc1ccco1,1,-20,0.2,9,2731,.,.
NC(=O)C1CCN(CC(O)CSc2ccccc2)CC1 (configuration not stated),0,-23,2.7,-4,.,7,2
COc1ccccc1OCc1nc(Cc2ccc(Cl)cc2)no1,5,-17,-0.1,2,4771,.,.
Cc1ccc(S(=O)(=O)Cc2ccc(C(=O)N3CCN(Cc4ccccc4)CC3)o2)cc1,6,-3,7.4,-2,5700,.,.
O=C(Cn1cc(C(F)(F)F)ccc1=O)N1CCCc2ccccc21,0,-23,1.0,.,3878,19,14
COc1cc(C)ccc1OCc1cc(C(=O)NC(C)Cn2cncn2)no1 (configuration not stated),.,-79,.,9,4525,.,.
Cc1cc(C)nc(/N=C(\N)Nc2ccc(S(=O)(=O)Nc3nc(C)cc(C)n3)cc2)n1,12,.,6.6,12,.,16,7
Cc1ccc(C(=O)N/C(=C\c2cccc([N+](=O)[O-])c2)C(=O)OCN2C(=O)c3ccccc3C2=O)cc1,.,-4,.,-1,2463,.,.
COC(=O)C(C)N=Cc1ccccc1 (configuration not stated),2,-14,4.2,5,4509,7,13
Cc1ccccc1OCCC(=O)N1CCN(S(=O)(=O)c2ccccc2F)CC1,6,-23,3.8,-2,6152,0,4
COc1ccc(C)cc1NC(=O)CN1CCN(c2ccccn2)CC1,13,-14,6.4,-17,3369,2,4

# Screens deposited in PubChem BioAssay by several laboratories.
